# Compound activity deposited in PubChem BioAssay by several laboratories.
# eIF4H FP inh = human eIF4H binding inhibitors, primary screen, translation initiation inhibitor project, biochemical, uHTS, fluorescence polarization | Eukaryotic translation initiation factor 4H (Homo sapiens), Q15056 | eIF4H fluorescence polarization binding assay | inhibition, % at 35 µM | AID 2012, 2009 | actives 0.94% (n = 290,000);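 active means 50% or more with normal probe brightness, or confirmed in later tests; inconclusive means above 50% with abnormal brightness, or retests that disagree; inactive means below 50% or failed in later tests; about a fifth of its hits are not listed in these tables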;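 further: calls also rest on retests at 20 µM and on dose response follow-up; 0% = protein and probe with vehicle and 100% = probe without protein; strong numbers were not always called active; many hits fall short of the cut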
# PABP FP inh = PABP poly(A) RNA binding inhibitors, primary screen, biochemical, fluorescence polarization, uHTS. inhibition, % at 35 µM. AID 2014, 2009. Polyadenylate-binding protein 1 (Homo sapiens), P11940. actives 1% (n = 290,000);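 active means 50% or more with normal probe brightness, or confirmed in later tests; inconclusive means above 50% with abnormal brightness, or retests that disagree; inactive means below 50% or failed in later tests; about a fifth of its hits are not listed in these tables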;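 further: calls also rest on retests at 20 µM and on dose response follow-up; controls were probe without protein and protein plus probe with vehicle; some compounds called inactive have numbers as strong as hits; many hits fall short of the cut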
# Target sequence (P11940 whole entry, looked up): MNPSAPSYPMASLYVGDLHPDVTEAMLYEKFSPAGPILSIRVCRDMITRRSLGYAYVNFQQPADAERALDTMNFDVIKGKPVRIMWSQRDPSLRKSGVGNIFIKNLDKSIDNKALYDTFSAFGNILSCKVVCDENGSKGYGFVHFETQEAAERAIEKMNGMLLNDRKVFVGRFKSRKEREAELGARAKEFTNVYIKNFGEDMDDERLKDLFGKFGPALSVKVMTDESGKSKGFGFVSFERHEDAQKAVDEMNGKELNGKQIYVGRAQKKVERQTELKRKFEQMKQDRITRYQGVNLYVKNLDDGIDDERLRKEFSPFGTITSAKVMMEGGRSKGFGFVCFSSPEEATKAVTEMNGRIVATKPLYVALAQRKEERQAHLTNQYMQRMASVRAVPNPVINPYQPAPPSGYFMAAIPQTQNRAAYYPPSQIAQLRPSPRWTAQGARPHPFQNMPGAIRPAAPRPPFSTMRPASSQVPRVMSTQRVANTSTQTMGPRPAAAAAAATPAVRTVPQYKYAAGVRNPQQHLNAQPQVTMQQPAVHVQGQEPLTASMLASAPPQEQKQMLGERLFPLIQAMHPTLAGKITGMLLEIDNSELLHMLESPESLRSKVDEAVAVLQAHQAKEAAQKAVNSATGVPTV
# Rce1 inh = yeast Rce1p protease inhibitors, primary screen, biochemical, fluorescence, cell-free homogeneous; calls only; actives 0.27% (n = 290,000); yeast membranes, quenched prenylated peptide cleavage fluorescence; AID 2563, 2010;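 active means fall in fluorescence gain of 50% or more versus controls, with final raw signal at or below 3038400; inconclusive means same 50% fall but final raw signal above 3038400; inactive means fall in fluorescence gain under 50%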;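 further: plate controls were neutral control wells for no effect and wells lacking membranes for full effect; tested at 10 µM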
# CSC inhib = cancer stem cell viability inhibitors, primary screen, luminescence | inhibition, % at 7.5 µM | cancer stem cell-like cells viability | actives 1.1% (n = 300,000) | AID 2717, 2010;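 active means mean at 75% or more and at least half the replicates too; inconclusive means mean and replicates disagree; tested in HMLE shEcad cells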;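 further: 0% = median of negative and 100% = median of positive control wells; the first replicate is given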
# eIF4H FP inh retest = further read-out of eIF4H FP inh, marked with its call; inhibition, %; compound at 20 µM; confirmation average;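 mean of two retest wells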
# PABP FP inh retest = further read-out of PABP FP inh, marked with its call; inhibition, %; compound at 20 µM; confirmation repeats;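 mean of two retest wells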
# * = called active by the depositor; i = inactive; ? = inconclusive; / = not tested or not shown. These rows are one share of the data; the hit share may differ from the screen's.
SMILES,eIF4H FP inh,PABP FP inh,Rce1 inh,CSC inhib,others
O=C(O)CCNC(=O)c1ccc(N=Nc2ccc(O)c(C(=O)O)c2)cc1,/,/,i,/,
COc1ccccc1N1CCN(CCN2C(=O)CC(=C3c4ccccc4-c4ccccc43)C2=O)CC1,/,/,/,-14,
Cc1cc(Nc2ccc(O)cc2)ccc1N,/,/,/,9,
Brc1ccc(-c2ccc(C3Nc4cccc5cccc(c45)N3)o2)cc1,/,/,/,17,
CCOC(=O)[C@H]1[C@H]2COc3cc(OC)ccc3[C@@H]2N2C(=O)[C@@H](CO)NC(=O)[C@@]12C,/,/,/,0,
Cc1nc2ccccn2c1/C(O)=C1\C(=O)C(=O)N(CCCN(C)C)C1c1ccc(F)cc1 (stereo unspecified),/,/,/,-16,
C#CCOCCOCCOCCNc1nc(N2CCN(C(=O)CCCCCCCCCCNC(=O)[C@H]([C@@H](C)CC)n3cc(CCCCN=C(N)N)nn3)CC2)nc(N2CCN(C(=O)CCCCCCCCCCNC(=O)[C@H]([C@@H](C)CC)n3cc(CCCCN=C(N)N)nn3)CC2)n1,/,/,/,-6,
CC[C@H](C)[C@@H](C(=O)NCCCCCCCCCCC(=O)N1CCN(C(=O)OC(C)(C)C)CC1)n1cc(CCCCN=C(NC(=O)OC(C)(C)C)NC(=O)OC(C)(C)C)nn1,/,/,/,4,
C=C(C)C(=O)Nc1cccc(C2=NOC3(C2)C[C@@H](C(N)=O)N(C(=O)c2ccc(Cl)cc2)C3)c1 (stereo partly specified),/,/,/,1,
C#CCOCCOCCOCCNc1nc(N2CCN(C(=O)CCCCCCCCCCNC(=O)[C@H]([C@@H](C)CC)n3cc(CCCCN=C(N)N)nn3)CC2)nc(N2CCN(C(=O)CCCCCCCCCCNC(=O)[C@H](CO)n3cc(CCCSC)nn3)CC2)n1,/,/,/,61,
c1ccc2c(c1)-c1cccc3c1c-2cc1ccccc13,/,/,/,3,
Nc1nc(N)c2nc(CNc3ccc(C(=O)NC(CCC(=O)O)C(=O)O)cc3)cnc2n1 (stereo unspecified),/,/,/,-1,
CC1(c2ccccc2)ON(c2ccccc2C(F)(F)F)C1=O (stereo unspecified),/,/,/,17,
C/C(=C\c1ccccc1)C1Nc2cccc3cccc(c23)N1,/,/,/,-1,
COc1cccc(C2C(C(=O)c3sc(C)nc3C)=C(O)C(=O)N2CCN(C)C)c1OC (stereo unspecified),6,-4,/,/,
Cc1cccc2cc(CN(CC3CCCO3)S(=O)(=O)c3ccccc3)c3nnnn3c12 (stereo unspecified),-6,2,/,/,
CCCCC(C)(O)C/C=C/[C@H]1[C@H](O)CC(=O)[C@@H]1CCCCCCC(=O)OC (stereo partly specified),32,5,/,/,
CCOc1cccc(-c2nnc3sc(-c4cc(OC)c(OC)cc4OC)nn23)c1,-6,9,/,/,
COCCN1C(=O)N[C@@H](c2ccc(Br)cc2)C(C(C)=O)=C1C,3,3,/,/,
Cn1c(SCCSc2nnc(-c3ccccc3)n2C)nnc1-c1ccccc1,-1,-5,/,/,
COc1ccc(CCn2c(-c3ccco3)nc3nc4ccccc4nc32)cc1OC,4,12,/,/,
CC1=C(C(=O)OCC(Br)(Br)Br)C(c2ccc(Br)cc2)NC(=O)N1CCCC(=O)O (stereo unspecified),-3,-10,/,/,
CC(C(=O)NCc1ccccc1)N(CCN1CCOCC1)C(=O)c1snc(C(N)=O)c1N (stereo unspecified),1,16,/,/,
CCn1c2ccccc2c2nnc(SCc3cc(=O)n4ccsc4n3)nc21,16,15,/,/,
Cc1cc(NS(=O)(=O)c2ccc(NC(=O)c3cc4ccccc4o3)cc2)no1,7,9,/,/,
# Continued.
SMILES,eIF4H FP inh,PABP FP inh,Rce1 inh,CSC inhib,others
COc1ccccc1C(=O)NN1C(=O)/C(=C/c2cccn2C)SC1=S,71,73*,/,/,eIF4H FP inh retest=-9;PABP FP inh retest=79*
c1cc(-c2nc3cc(Cc4ccc5oc(-c6ccncc6)nc5c4)ccc3o2)ccn1,-2,-10,/,/,
COc1nc2c(C)cccc2cc1-c1noc(-c2ccncc2)n1,6,-5,/,/,
CC(C)c1ccc(S(=O)(=O)/N=C2/C=CC(=O)c3ccccc32)cc1,2,-13,/,/,
CCOC(=O)c1sc(NC(=O)c2cc3c(C)nn(-c4ccccc4)c3s2)nc1C,1,5,/,/,
Cc1ccc(S(=O)(=O)Nc2cccc(C(=O)Nc3cc(C)ccn3)c2)cc1,-10,0,/,/,
COc1cccc(C(N)CC(=O)O)c1 (stereo unspecified),6,-7,/,/,
CCCc1nnc2n1N=C(c1ccc(-c3cc(Cl)ccc3Cl)o1)CS2,-9,-10,/,/,
Cn1c(=O)c2c(nc(SCCOc3ccc4ccc(=O)oc4c3)n2C)n(C)c1=O,-6,0,/,/,
Cc1ccc2c(Cl)cc(Cl)c(OCC(=O)Nc3cc(C)on3)c2n1,-1,-3,/,/,
C#CCOC(=O)CCC(=O)Nc1cc(OC)nc(OC)n1,-1,0,/,/,
CCOCCn1c(CN2CCC(C)CC2)nc2c1c(=O)n(C)c(=O)n2C,-3,-13,/,/,
CC1CCCN(c2nc3ccccc3nc2C(C#N)C(=O)OC2CCCCC2)C1 (stereo unspecified),20,19,/,/,
Cc1csc(NC(=O)c2c(O)c3cccc4c3n(c2=O)CCC4)n1,-2,4,/,/,
Cc1ccccc1NC(=O)c1cnc(Nc2nc3ccccc3s2)nc1C,5,-11,/,/,
CC(C)CCn1c(N2CCN(Cc3ccccc3)CC2)nc2c1c(=O)[nH]c(=O)n2C,-1,4,/,/,
COCCNC(=O)C(c1ccc(C)cc1)N(C(=O)CCC(=O)Nc1ccccn1)C1CCCC1 (stereo unspecified),-12,-8,/,/,
COc1nnnc2c1sc1nc(N3CCOCC3)c3c(c12)CC(C)(C)OC3,3,6,/,/,
O=C(CSc1nnc(-c2cccs2)n1-c1ccccc1)N1CCN(C(=O)c2ccco2)CC1,4,2,/,/,
CNC(=O)c1cc2c(=O)n3cc(C)ccc3nc2n(Cc2ccco2)c1=N,15,26,/,/,
Cc1ccc(-n2nc(C)c(C3C(C#N)=C(N)OC4=C3C(=O)CCC4)c2Cl)cc1 (stereo unspecified),3,5,/,/,
COc1ccc(OC)c(C(=O)CSc2nnc(-c3ccc(OC)c(OC)c3)o2)c1,-3,-6,/,/,
COc1cccc(N2CCN(C(=O)CCn3c(=S)[nH]c4cc5c(cc4c3=O)OCO5)CC2)c1,-5,-1,/,/,
C=CCn1c(=O)c(C(=O)Nc2ccccc2OC)c(O)c2ccccc21,-10,10,/,/,
C#CCOCCOCCOCCNc1nc(N2CCN(C(=O)[C@H](C)n3cc(CCCN=C(N)N)nn3)CC2)nc(N2CCN(C(=O)[C@H](CCCCN)n3cc(CCCC)nn3)CC2)n1,22,7,/,/,
# Next compounds follow.
SMILES,eIF4H FP inh,PABP FP inh,Rce1 inh,CSC inhib,others
C=CCn1c(NC(=O)c2ccco2)c(S(=O)(=O)c2ccccc2)c2nc3ccccc3nc21,62*,64*,/,/,
CCOC(=O)N1CCN(CC(=O)c2c[nH]c3ccc(F)cc23)CC1,-3,-3,/,/,
C=CCC(=O)OCC(=O)Nc1ccc(Oc2ccccc2)cc1,-6,-13,/,/,
O=S(=O)(Nc1ccc2nc(-c3ccc(Br)o3)[nH]c2c1)c1ccccc1,-4,7,/,/,
CC(C)Oc1ccc(-c2nn(-c3ccccc3)cc2/C=c2\sc3ncnn3c2=O)cc1,?,?,/,/,
Cc1ccc(-c2nsc3c(N4CCN(C(=O)c5ccco5)CC4)ncnc23)cc1,-3,-15,/,/,
CN1CCc2c(sc3ncn4nc(-c5ccccc5O)nc4c23)C1,48,?,/,/,
CCOc1ccc(N2CCn3c2nc2c3c(=O)n(CCc3ccccc3)c(=O)n2C)cc1,-7,-6,/,/,
Cc1ccccc1NC(=O)c1c(O)c2cccc3c2n(c1=O)CC3,-1,6,/,/,
Cc1c(Nc2c3c(c(C#N)c4nc5ccccc5n24)CCC3)c(=O)n(-c2ccccc2)n1C,3,9,/,/,
COC(=O)c1cc(-c2ccccc2)c2c(=O)n(C)c(=O)n(C)c2n1,-7,4,/,/,
CC1=C(C(=O)O)N2C(=O)[C@@H](NC(=O)[C@H](N)c3ccccc3)[C@H]2SC1,-5,10,/,/,
COc1ccc(N2CCN(c3nc(Nc4ccc(F)cc4)nc(OC)n3)CC2)cc1,-5,-8,/,/,
COc1ccc(C2C(C(=O)c3cc4cccc(OC)c4o3)=C(O)C(=O)N2CCCN(C)C)cc1OC (stereo unspecified),-6,-4,/,/,
Cc1ccc2nc(Nc3ncc4c(n3)CCCC4=O)nc(C)c2c1,-2,5,/,/,
O=C(/C=C/c1ccc(Cl)cc1)N1CCN(c2ncccn2)CC1,6,0,/,/,
Cc1ccccc1N=Nc1c(C)[nH]n(-c2ccccc2)c1=O,-3,-6,/,/,
Cc1n[nH]c(C)c1S(=O)(=O)N1CCCC(C(=O)Nc2ccc3c(c2)OCCO3)C1 (stereo unspecified),6,0,/,/,
CC1(C)CC(=O)C(C=Nc2cccc(/N=C/C3=C(O)CC(C)(C)CC3=O)n2)=C(O)C1,4,3,/,/,
Cc1nc(N2CCN(c3ccccc3)CC2)c2c3c(sc2n1)CCC3,2,-10,/,/,
CN(C)c1ccc(-c2ccncc2)cc1,-2,7,/,/,
c1ccc(CN2CCN(c3ncccn3)CC2)nc1,-1,7,/,/,
Cc1cc(C)n2nc(CCc3nc4nc(C)cc(C)n4n3)nc2n1,1,15,/,/,
Cn1c(=O)c2c3c(sc2n2c(SCC(=O)c4ccccc4)nnc12)COC(C)(C)C3,-8,0,/,/,
O=C(c1cc2nc(-c3ccc(F)cc3)cc(C(F)(F)F)n2n1)N1CCCC1,-9,-2,/,/,

# Structural class, the compounds so far with a cyano group
SMILES,eIF4H FP inh,PABP FP inh,Rce1 inh,CSC inhib,others
CC1CCCN(c2nc3ccccc3nc2C(C#N)C(=O)OC2CCCCC2)C1 (stereo unspecified),20,19,/,/,
Cc1ccc(-n2nc(C)c(C3C(C#N)=C(N)OC4=C3C(=O)CCC4)c2Cl)cc1 (stereo unspecified),3,5,/,/,
Cc1c(Nc2c3c(c(C#N)c4nc5ccccc5n24)CCC3)c(=O)n(-c2ccccc2)n1C,3,9,/,/,

# The list continues:
SMILES,eIF4H FP inh,PABP FP inh,Rce1 inh,CSC inhib,others
C/C(=N/Nc1nc(-c2ccccc2)cc(-c2ccccc2)n1)c1ccc(N)cc1,-8,-7,/,/,
COc1cc(-c2nc(-c3ccc(C)nc3OC)no2)cc(OC)c1OC,3,4,/,/,
Cc1cc(NS(=O)(=O)c2ccc(Nc3nc(-c4sc(C)nc4C)cs3)cc2)no1,-5,9,/,/,
CCCS(=O)(=O)Nc1ccc(-c2ccc3nnc(C)n3n2)cc1,4,9,/,/,
c1ccc2nc3c(nc2c1)sc1nc2ccccc2n13,3,3,/,/,
COc1cc(/C=c2\sc3nc(-c4ccncc4)nn3c2=O)ccc1OC(C)=O,-8,-4,/,/,
CC1(C)Cc2nc3nc(SCC(=O)NCc4ccccc4)n(-c4ccccc4)c(=O)c3cc2CO1,-4,5,/,/,
Cc1c(Cl)cccc1NC(=O)CN1C(=O)CSc2ncccc21,6,-2,/,/,
Cc1nc2sc3c(c2c2nc(-c4ccco4)nn12)CCCC3,-6,1,/,/,

# Filtered by structure, the entries above containing a furan ring, fused or not
SMILES,eIF4H FP inh,PABP FP inh,Rce1 inh,CSC inhib,others
Brc1ccc(-c2ccc(C3Nc4cccc5cccc(c45)N3)o2)cc1,/,/,/,17,
COc1ccc(CCn2c(-c3ccco3)nc3nc4ccccc4nc32)cc1OC,4,12,/,/,
Cc1cc(NS(=O)(=O)c2ccc(NC(=O)c3cc4ccccc4o3)cc2)no1,7,9,/,/,
CCCc1nnc2n1N=C(c1ccc(-c3cc(Cl)ccc3Cl)o1)CS2,-9,-10,/,/,
O=C(CSc1nnc(-c2cccs2)n1-c1ccccc1)N1CCN(C(=O)c2ccco2)CC1,4,2,/,/,
CNC(=O)c1cc2c(=O)n3cc(C)ccc3nc2n(Cc2ccco2)c1=N,15,26,/,/,
C=CCn1c(NC(=O)c2ccco2)c(S(=O)(=O)c2ccccc2)c2nc3ccccc3nc21,62*,64*,/,/,
O=S(=O)(Nc1ccc2nc(-c3ccc(Br)o3)[nH]c2c1)c1ccccc1,-4,7,/,/,
Cc1ccc(-c2nsc3c(N4CCN(C(=O)c5ccco5)CC4)ncnc23)cc1,-3,-15,/,/,
COc1ccc(C2C(C(=O)c3cc4cccc(OC)c4o3)=C(O)C(=O)N2CCCN(C)C)cc1OC (stereo unspecified),-6,-4,/,/,
Cc1nc2sc3c(c2c2nc(-c4ccco4)nn12)CCCC3,-6,1,/,/,
